rRNA inh HTS: reduced GFP signal of wild-type E. coli, primary screen, bacterial rRNA inhibitor project, GFP/RFP fluorescence, OD600, single point; E. coli WT GFP vs humanized-ribosome RFP mutants, 24 h; hits give low values; DMSO median 0, no signal -100; GFP signal change (wild-type ribosome), % (test concentration not listed); 350,000 tested, 1.6% active;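 active = significant combined selectivity score with lowered wild-type GFP, culture density cut under 30%, mutant RFP and density less affected; inactive = any of these conditions unmet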; also: one replicate is shown; some compounds called inactive have numbers as strong as hits
FGF22 binding: binders of human FGF22 protein, primary screen, FGF22 synaptogenesis inhibitor project, biophysical, thermal shift, single point. recombinant FGF22 thermal shift, SYPRO orange fluorescence; percent of sucrose octasulfate shift, DMSO zero. calls only at 9.99 µM. 340,000 tested, 1.5% active. AID 651658, 2012;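 active = melting point raised past a set limit in the mean and every replicate; three in four hits are not shown here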
Target sequence (Q9HCT0 whole entry, looked up): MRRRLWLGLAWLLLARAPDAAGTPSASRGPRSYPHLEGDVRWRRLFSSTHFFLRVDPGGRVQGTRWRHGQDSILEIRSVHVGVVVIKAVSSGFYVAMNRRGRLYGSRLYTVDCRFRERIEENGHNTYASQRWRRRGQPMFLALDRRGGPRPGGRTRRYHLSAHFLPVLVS
rRNA inh HTS OD600: also measured in rRNA inh HTS; calls as there; OD600 change, %; measured here: OD600 growth;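 optical density of the mix in the first replicate; 0 = DMSO median and -100 = no signal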
rRNA inh HTS RFP: further read-out of rRNA inh HTS, marked with its call; RFP signal change, %; measured here: RFP humanized mutant strains;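 first replicate; 0 = DMSO median and -100 = no signal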
* marks the source's active call; other numbers are inactive results; i = inactive. Only part of the results is shown, so the mix of outcomes need not match the whole.

rRNA inh HTS	rRNA inh HTS OD600	rRNA inh HTS RFP	FGF22 binding	mol
-2	-1	3.5	i	O=C(NCc1ccccc1)[C@@H]1N[C@@H]2c3ccc(-c4ccccc4)c(=O)n3C[C@@H]2[C@H]1CO
3	3	-3.0	i	C[C@H](CO)N1C[C@H](C)[C@@H](CN(C)S(C)(=O)=O)Oc2cc(Br)ccc2S1(=O)=O
5	12	1.1	i	COc1ccc(-c2ccc([C@@H]3[C@@H](C#N)N(C(=O)CN(C)C)[C@@H]3CO)cc2)cc1
-8	-2	11	i	COc1ccccc1CN1[C@H](CO)[C@H](c2ccccc2)C12CN(C(=O)c1ccccn1)C2
-1	-6	2.8	i	C[C@@H]1CCCCO[C@H](CN(C)C(=O)Cc2ccccc2)[C@H](C)CN([C@@H](C)CO)C(=O)c2cc(NS(=O)(=O)c3cccs3)ccc2O1
0	2	0.6	i	C[C@@H]1CCCCO[C@@H](CN(C)S(C)(=O)=O)[C@H](C)CN([C@@H](C)CO)C(=O)c2cc(NC(=O)C3CCCCC3)ccc2O1
6	8	-2.4	i	C[C@@H]1CCCCO[C@@H](CN(C)C(=O)Nc2ccccc2)[C@@H](C)CN([C@H](C)CO)C(=O)c2cc(NC(=O)CCCCCC(=O)Nc3ccccc3N)ccc2O1
5	0	-1.4	i	CC(C)(O)C#Cc1ccc([C@H]2[C@@H](CO)N3CCCCN(C(=O)c4ccncc4)C[C@H]23)cc1
0	-1	0.5	i	COc1ccc(S(=O)(=O)N(C)C[C@H]2Oc3ccc(NC(=O)Cc4cn(C)c5ccccc45)cc3CC(=O)N([C@@H](C)CO)C[C@H]2C)cc1
1	0	1.0	i	CC=Cc1ccc2n(c1=O)C[C@@H]1[C@@H](CO)[C@H](C(=O)NCCC)[C@H]2N1CC1CCCC1 (mixture of isomers)
-4	-7	-2.5	i	COc1ccccc1-c1ccc2c(c1)O[C@H](CN(C)C(=O)c1cccnc1)[C@H](C)CN([C@@H](C)CO)S2(=O)=O
-5	-8	-2.3	i	CCC(=O)Nc1ccc2c(c1)C(=O)N(C)C[C@@H](OC)[C@H](C)CN(CCc1ccccc1)[C@H](C)CO2
-5	-9	0.4	i	C[C@H]1CN([C@@H](C)CO)C(=O)c2cccc(NC(=O)Nc3ccc4c(c3)OCO4)c2O[C@@H]1CN(C)C(=O)Nc1ccc(F)cc1
6	6	1.8	i	Cc1ccc(S(=O)(=O)Nc2ccc3c(c2)C(=O)N([C@H](C)CO)C[C@H](C)[C@@H](CN(C)S(=O)(=O)c2cn(C)cn2)OCCCC[C@@H](C)O3)cc1
4	5	0.6	i	CC(C)NC(=O)Nc1ccc2c(c1)C(=O)N([C@H](C)CO)C[C@@H](C)[C@H](CN(C)Cc1ccc3c(c1)OCO3)O2
0	1	-4.4	i	C[C@H](CO)N1C[C@H](C)[C@H](CN(C)Cc2ccncc2)Oc2ncc(-c3cccc(F)c3)cc2C1=O
2	4	-3.3	i	COc1ccc(NC(=O)N(C)C[C@@H]2Oc3ccc(N(C)C)cc3C(=O)N([C@@H](C)CO)C[C@H]2C)cc1
6	23	2.0	i	O=C(c1ccncc1)N1CCCCN2[C@H](C1)[C@@H](c1ccc(C#Cc3ccccn3)cc1)[C@@H]2CO
1	2	-0.8	i	CN1C(=O)c2cc(NC(=O)c3cccc(C(F)(F)F)c3)ccc2OC[C@@H]2O[C@H](CC(=O)O)CC[C@H]21
-1	-6	-1.7	i	O=C(NCC1CCCCC1)[C@H]1[C@H](CO)[C@H]2Cn3c(ccc(C4=CCCCC4)c3=O)[C@@H]1N2

Whole records, looked up by structure.
Listed for C[C@@H]1CCCCO[C@@H](CN(C)C(=O)Nc2ccccc2)[C@@H](C)CN([C@H](C)CO)C(=O)c2cc(NC(=O)CCCCCC(=O)Nc3ccccc3N)ccc2O1 = rRNA inh HTS = 6; rRNA inh HTS OD600 = 8; rRNA inh HTS RFP = -2.4; FGF22 binding = i
Listed for C[C@H](CO)N1C[C@H](C)[C@@H](CN(C)S(C)(=O)=O)Oc2cc(Br)ccc2S1(=O)=O = rRNA inh HTS = 3; rRNA inh HTS OD600 = 3; rRNA inh HTS RFP = -3.0; FGF22 binding = i

Next structures follow.
rRNA inh HTS	rRNA inh HTS OD600	rRNA inh HTS RFP	FGF22 binding	mol
0	-2	0.2	i	C[C@@H]1CN([C@@H](C)CO)C(=O)c2cccc(NC(=O)NC3CCCCC3)c2O[C@@H]1CN(C)S(=O)(=O)c1cn(C)cn1
-1	0	-1.1	i	C[C@@H]1CN([C@H](C)CO)C(=O)c2cc(NC(=O)CCC(F)(F)F)ccc2O[C@@H](C)CCCCO[C@H]1CN(C)C(=O)Nc1ccccc1
-2	-7	-0.1	i	C[C@@H]1CN([C@@H](C)CO)C(=O)c2c(c3ccccc3n2C)-c2ccccc2CO[C@@H]1CN(C)Cc1ccc(O)cc1
-2	-2	-2.2	i	Cc1noc(C)c1S(=O)(=O)Nc1ccc2c(c1)C(=O)N([C@@H](C)CO)C[C@@H](C)[C@@H](CN(C)C(=O)NC1CCCCC1)O2
7	2	0.3	i	COc1ccc(S(=O)(=O)Nc2ccc3c(c2)[C@H]2C[C@H](CC(=O)NCC4CC4)O[C@H](CO)[C@H]2O3)cc1
-1	4	2.0	i	CC(C)NC(=O)N(C)C[C@H]1Oc2ccc(N(C)C)cc2C(=O)N([C@@H](C)CO)C[C@H]1C
3	11	-1.6	i	CCCC(=O)Nc1ccc2c(c1)C(=O)N(C)[C@H]1CC[C@H](CC(=O)N3CCCCC3)O[C@@H]1CO2
4	1	-0.6	i	CS(=O)(=O)N1[C@@H]2c3ccc(-c4ccc(F)cc4)c(=O)n3C[C@@H]2[C@@H](CO)[C@@H]1C(=O)O
-3	4	-0.4	i	COc1ccc(CN(C)C[C@H]2Oc3ccc(NC(=O)Nc4c(C)noc4C)cc3C(=O)N([C@H](C)CO)C[C@H]2C)cc1
-1	-4	1.3	i	C[C@H](CO)N1C[C@H](C)[C@H](CN(C)S(=O)(=O)c2cccs2)OCCCC[C@H](C)Oc2ccc(NC(=O)C3CCCCC3)cc2C1=O
2	3	0.8	i	COC(=O)C[C@@H]1CC[C@H](NS(=O)(=O)c2ccc(OC)cc2)[C@H](CO)O1
2	6	-1.2	i	CC(C)C#Cc1cnc2c(c1)C(=O)N([C@H](C)CO)C[C@H](C)[C@@H](CN(C)Cc1ccccn1)O2
-6	-18	0.9	i	O=C(C[C@@H]1C[C@H]2c3cc(NC(=O)Nc4ccccc4F)ccc3O[C@H]2[C@H](CO)O1)NCC1CC1
2	-13	-1.7	i	C[C@H]1CN([C@@H](C)CO)C(=O)Cc2cc(NC(=O)Nc3ccc(F)cc3)ccc2O[C@H]1CN(C)C(=O)Nc1ccc(F)cc1
-5	0	-2.1	i	CCC(=O)N(C)C[C@H]1Oc2ncc(C#Cc3ccc(OC)cc3)cc2C(=O)N([C@@H](C)CO)C[C@@H]1C
-2	-1	-1.7	i	O=C(Nc1ccc2c(c1)[C@@H]1C[C@H](CC(=O)N3CCCCC3)O[C@@H](CO)[C@@H]1O2)C1CCC1
-1	-1	-2.2	i	COc1ccc(CN(C)C[C@@H]2Oc3c(NS(=O)(=O)c4ccc(OC)cc4)cccc3C(=O)N([C@H](C)CO)C[C@@H]2C)cc1
0	-5	-2.3	i	CO[C@H]1CN(C)C(=O)c2cc(NC(=O)Nc3ccccc3)ccc2OC[C@H](C)N(C(=O)CN(C)C)C[C@H]1C
4	4	1.0	i	CC(C)[C@H]1COCCS(=O)(=O)N1Cc1ccccc1-c1cccc2c1sc1ccccc12
1	1	-2.6	i	CC(C)NC(=O)Nc1ccc2c(c1)C(=O)N([C@H](C)CO)C[C@H](C)[C@@H](CN(C)C(=O)c1ccccc1)OCCCC[C@@H](C)O2

rRNA inh HTS	rRNA inh HTS OD600	rRNA inh HTS RFP	FGF22 binding	mol
3	15	1.1	i	C[C@@H]1CN([C@H](C)CO)C(=O)c2cc(C#CCN(C)C)cnc2O[C@H]1CN(C)C(=O)Cc1ccncc1
-1	1	-0.3	i	C[C@@H]1CCCCO[C@H](CN(C)Cc2ccc(C(=O)O)cc2)[C@H](C)CN([C@H](C)CO)C(=O)c2cc(NC(=O)Nc3ccc4c(c3)OCO4)ccc2O1
-3	6	-2.1	i	COc1ccccc1NC(=O)N1CC[C@@H]2[C@H]1c1cc(-c3ccc(F)cc3)ccc1N(C)[C@H]2CO
-2	-10	0.6	i	COc1ccccc1S(=O)(=O)N(C)C[C@@H]1Oc2ncc(-c3ccc(C)cc3)cc2C(=O)N([C@@H](C)CO)C[C@@H]1C
-31	-62	4.3	i	C[C@@H]1CN([C@@H](C)CO)S(=O)(=O)c2ccc(C#CCN(C)C)cc2O[C@H]1CN(C)Cc1ccccc1F
7	7	6.9	i	CCOC(=O)C1CSCCS(=O)(=O)N1Cc1ccc(C)cc1 (stereo not drawn)
-3	-12	2.1	i	C[C@H](NC(=O)C[C@@H]1CC[C@H]2[C@@H](COc3ccc(NS(=O)(=O)c4ccc(Cl)cc4)cc3C(=O)N2C)O1)c1ccccc1
-1	-6	0.9	i	Cc1ccc(S(=O)(=O)N(C)C[C@@H]2Oc3c(NS(=O)(=O)c4cccs4)cccc3C(=O)N([C@H](C)CO)C[C@H]2C)cc1
-1	-1	1.2	i	CN1CCN(C(=O)C[C@@H]2CC[C@@H]3[C@H](COC[C@H](O)CN3C(=O)c3ccccc3F)O2)CC1
1	2	0.5	i	O=C(C[C@@H]1C=C[C@@H](NS(=O)(=O)c2ccc(F)cc2)[C@H](CO)O1)N1CCN(c2ccccc2)CC1
5	13	1.2	i	COc1ccccc1S(=O)(=O)N[C@H]1CC[C@@H](CC(=O)N2CCN(C)CC2)O[C@@H]1CO
-1	0	-0.8	i	C[C@@H]1CN([C@@H](C)CO)C(=O)c2cc(NC(=O)Cc3cn(C)c4ccccc34)ccc2O[C@H]1CN(C)C(=O)Nc1ccccc1
0	11	0.1	i	C[C@H]1CN([C@@H](C)CO)C(=O)c2cccc(NC(=O)Nc3ccccc3)c2O[C@@H]1CN(C)CC1CC1
-1	1	-2.9	i	C[C@@H]1CN([C@@H](C)CO)C(=O)c2cc(N(C)C)ccc2O[C@H]1CN(C)C(=O)Nc1ccc2c(c1)OCO2
-4	-2	-2.1	i	O=C(C[C@@H]1C=C[C@H](NC(=O)c2ccc3c(c2)OCO3)[C@@H](CO)O1)NCc1ccc(Cl)cc1
2	12	-1.5	i	Cc1ccc(S(=O)(=O)Nc2cccc3c2O[C@@H](CN(C)C(=O)Nc2c(C)noc2C)[C@H](C)CN([C@@H](C)CO)C3=O)cc1
-4	-7	13	i	CCCC#Cc1cnc2c(c1)C(=O)N([C@@H](C)CO)C[C@@H](C)[C@H](CN(C)S(=O)(=O)c1cccc(OC)c1)O2
0	3	-0.1	i	CO[C@@H]1CN(C)C(=O)c2ccc(NC(=O)C3CC3)cc2OC[C@H](C)N(C(=O)c2ccccc2)C[C@@H]1C
3	-5	1.0	i	COCC(=O)Nc1ccc2c(c1)[C@H]1C[C@@H](CC(=O)N3CCOCC3)O[C@@H](CO)[C@H]1O2
0	5	0.4	i	CCS(=O)(=O)NCC[C@H]1CC[C@H](NC(=O)C2CCC2)[C@@H](CO)O1

Molecules shown so far containing a thiophene ring, fused or not, in the order listed:
rRNA inh HTS	rRNA inh HTS OD600	rRNA inh HTS RFP	FGF22 binding	mol
-1	-6	2.8	i	C[C@@H]1CCCCO[C@H](CN(C)C(=O)Cc2ccccc2)[C@H](C)CN([C@@H](C)CO)C(=O)c2cc(NS(=O)(=O)c3cccs3)ccc2O1
-1	-4	1.3	i	C[C@H](CO)N1C[C@H](C)[C@H](CN(C)S(=O)(=O)c2cccs2)OCCCC[C@H](C)Oc2ccc(NC(=O)C3CCCCC3)cc2C1=O
4	4	1.0	i	CC(C)[C@H]1COCCS(=O)(=O)N1Cc1ccccc1-c1cccc2c1sc1ccccc12
-1	-6	0.9	i	Cc1ccc(S(=O)(=O)N(C)C[C@@H]2Oc3c(NS(=O)(=O)c4cccs4)cccc3C(=O)N([C@H](C)CO)C[C@H]2C)cc1

The list goes on.
rRNA inh HTS	rRNA inh HTS OD600	rRNA inh HTS RFP	FGF22 binding	mol
2	3	0.3	i	CCCNC(=O)[C@H]1[C@H](CO)[C@H]2Cn3c(cccc3=O)[C@@H]1N2S(=O)(=O)c1ccccc1C
0	6	0.4	i	CS(=O)(=O)Nc1ccc2c(c1)[C@H]1C[C@@H](CC(=O)NC3CCCCC3)O[C@H](CO)[C@H]1O2
-1	2	-1.2	i	CNC[C@@H]1Oc2c(NC(=O)c3nc4ccccc4s3)cccc2C(=O)N([C@@H](C)CO)C[C@@H]1C
1	4	-0.6	i	C[C@@H]1CCCCO[C@@H](CN(C)Cc2ccc(C(=O)O)cc2)[C@@H](C)CN([C@@H](C)CO)C(=O)c2cc(NC(=O)CCC(F)(F)F)ccc2O1
5	10	0.1	i	COc1ccc(NC(=O)N(C)C[C@@H]2Oc3c(NC(=O)C4CCCCC4)cccc3C(=O)N([C@@H](C)CO)C[C@H]2C)cc1
-1	2	-3.1	i	COCC(=O)N(C)C[C@H]1Oc2ncc(C#Cc3cccnc3)cc2C(=O)N([C@@H](C)CO)C[C@H]1C
2	-3	-5.3	i	O=C(C[C@@H]1C[C@@H]2c3cc(NC(=O)C4CCOCC4)ccc3O[C@@H]2[C@@H](CO)O1)NCc1ccc(Oc2ccccc2)cc1

From PubChem
